# Env fusion inh – inhibitors of HIV Env-mediated cell fusion. inhibition, % at 12.3 µM. AID 651610. 1.1% of 360,000 active. HeLa-JRFL Env/CEM21 cell fusion, luciferase;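 active = mean replicate inhibition score of at least 50 and every replicate individually at or above 50; inconclusive = only one of the two criteria met; inactive = mean below 50 and not all replicates reaching 50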;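 note: 0% = plate neutral controls and 100% = maraviroc near 300 nM; one replicate is shown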
# eIF4H FP inh – inhibitors of RNA binding by human eIF4H | Q15056 | eIF4H fluorescence polarization binding assay | inhibition, % at 35 µM | 0.94% of 290,000 active | AID 2012;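 active = 50% or more with normal probe brightness, or confirmed in later tests; inconclusive = above 50% with abnormal brightness, or retests that disagree; inactive = below 50% or failed in later tests; about a fifth of its hits are not listed in these tables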;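 note: calls also rest on retests at 20 µM and on dose response follow-up; 0% = protein and probe with vehicle and 100% = probe without protein; strong numbers were not always called active; many hits fall short of the cut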
# CSC inhib – blocks cancer stem cells; cancer stem cell-like cells viability, luminescence; inhibition, % at 7.5 µM; 1.1% of 300,000 active;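 active = mean at 75% or more and at least half the replicates too; inconclusive = mean and replicates disagree; tested in HMLE shEcad cells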;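 note: 0% = median of negative and 100% = median of positive control wells; the first replicate is given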
# MT1-MMP act inh – inhibitors of human MT1-MMP activation; 0.061% of 360,000 active; HT1080 RFP-PRO-GFP cells, GFP/RFP ratio fluorescence, overnight; percent of plate control window, DMSO zero; GFP/RFP ratio change, % at 20 µM; P50281;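 active = GFP/RFP ratio change of at least 30% with cell ATP level not reduced by more than half and red fluorescence within 50% of control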; note: strong numbers were not always called active
#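 Read-out: GFP/RFP fluorescence ratio; Test system: RFP-PRO-GFP reporter HT1080 cells; Compound dosing: single-point 20 µM compound, 1% DMSO; Times: overnight compound exposure at 37 °C.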
# Rce1 inhib – yeast Ras-converting enzyme inhibition | 0.27% of 290,000 active | AID 2563 | calls only | Q03530 | yeast membranes, quenched prenylated peptide cleavage fluorescence;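 active = fall in fluorescence gain of 50% or more versus controls, with final raw signal at or below 3038400; inconclusive = same 50% fall but final raw signal above 3038400; inactive = fall in fluorescence gain under 50%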;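 note: plate controls were neutral control wells for no effect and wells lacking membranes for full effect; tested at 10 µM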
# Target sequence (Q03530 whole entry, looked up): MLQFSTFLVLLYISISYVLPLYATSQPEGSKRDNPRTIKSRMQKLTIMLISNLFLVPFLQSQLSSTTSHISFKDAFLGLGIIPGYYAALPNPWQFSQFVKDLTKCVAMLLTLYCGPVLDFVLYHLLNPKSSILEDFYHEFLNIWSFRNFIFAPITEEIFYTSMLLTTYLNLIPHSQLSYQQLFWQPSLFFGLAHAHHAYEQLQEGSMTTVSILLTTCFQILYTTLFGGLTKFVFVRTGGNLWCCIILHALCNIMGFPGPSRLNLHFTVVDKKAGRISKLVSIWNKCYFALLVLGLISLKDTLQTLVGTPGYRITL
# Yeast UUG start – yeast start codon fidelity modulation; S. cerevisiae UUG-firefly luciferase reporter, luminescence/redox ratio; activity score, % at 18.7 µM; 0.13% of 350,000 active; AID 602363;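 active = replicate mean at a twofold rise or more, about +100% in these data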;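 note: firefly luciferase made from a UUG start codon reports start codon fidelity; reporter light over untreated wells divided by growth signal over untreated wells; some hits fall short of that in this replicate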
# PABP FP inh – blocks human PABP binding to poly(A) RNA; fluorescence polarization; inhibition, % at 35 µM; 1% of 290,000 active; AID 2014;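 active = 50% or more with normal probe brightness, or confirmed in later tests; inconclusive = above 50% with abnormal brightness, or retests that disagree; inactive = below 50% or failed in later tests; about a fifth of its hits are not listed in these tables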;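 note: calls also rest on retests at 20 µM and on dose response follow-up; controls were probe without protein and protein plus probe with vehicle; some compounds called inactive have numbers as strong as hits; many hits fall short of the cut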
# Target sequence (P11940 whole entry, looked up): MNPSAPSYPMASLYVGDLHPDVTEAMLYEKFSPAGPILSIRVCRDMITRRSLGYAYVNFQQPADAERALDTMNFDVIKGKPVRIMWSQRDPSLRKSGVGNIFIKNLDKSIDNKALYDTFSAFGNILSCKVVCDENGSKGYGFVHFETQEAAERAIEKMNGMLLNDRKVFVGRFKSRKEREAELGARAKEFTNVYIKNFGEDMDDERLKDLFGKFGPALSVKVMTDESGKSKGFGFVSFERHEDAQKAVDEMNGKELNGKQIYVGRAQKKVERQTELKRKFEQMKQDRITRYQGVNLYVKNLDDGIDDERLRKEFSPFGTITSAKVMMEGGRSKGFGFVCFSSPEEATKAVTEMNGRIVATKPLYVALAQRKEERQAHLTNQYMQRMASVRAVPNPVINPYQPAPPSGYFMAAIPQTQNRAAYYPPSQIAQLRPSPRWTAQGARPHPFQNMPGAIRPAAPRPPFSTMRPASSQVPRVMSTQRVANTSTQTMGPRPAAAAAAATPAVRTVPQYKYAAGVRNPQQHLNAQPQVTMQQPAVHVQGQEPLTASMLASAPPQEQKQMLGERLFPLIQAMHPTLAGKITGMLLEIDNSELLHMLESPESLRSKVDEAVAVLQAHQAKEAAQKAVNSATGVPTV
# MT1-MMP act inh RFP – recorded beside MT1-MMP act inh, whose call it bears; RFP signal change, %; measured here: RFP expression control read;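 0 = vehicle wells; hits needed this value within 50% of zero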
# Numbers without * were called inactive; i = inactive; ? = inconclusive; nt = no result given; & = joins results of further samples. Rows were taken by chance; overall some 3% were active at least once.
Compound,Env fusion inh,eIF4H FP inh,CSC inhib,MT1-MMP act inh,MT1-MMP act inh RFP,Rce1 inhib,Yeast UUG start,PABP FP inh
Cc1ccc(C(=O)Nc2cccc(C(O)c3ccccc3)c2)cc1 (stereo unspecified),11,nt,0,-3,-8,i,nt,nt
Cc1ccc(S(=O)(=O)c2nc(S(C)(=O)=O)sc2N2CCOCC2)cc1,-7,1,-9,-1,6,i,1,5
CC(C)C(c1nnnn1Cc1ccccc1)N(CCCO)Cc1cc2cc3c(cc2[nH]c1=O)OCO3 (stereo unspecified),nt,111*,-3,-8,-6,i,-4,94*
Cc1ccc(CNc2cc(C(=O)O)ccc2C)s1,6,8,-12,-10,-2,i,35,-1
Cc1cc(C)n(CCC(=O)N/N=C/c2ccc(O)cc2)n1,nt,2,-1,-2,2,i,nt,12
c1ccc(C2=NNC(=NCc3ccc4c(c3)OCO4)SC2)cc1,nt,2,12,7,-2,i,-19,1
CN1/C(=C/C(=O)CSc2ccccc2C(=O)O)C(C)(C)c2ccccc21,1,13,-12,13,6,i,1,3
COc1ccc(S(=O)(=O)N2CC(C(=O)O)Oc3ccc(Cl)cc32)cc1 (stereo unspecified),12,1,-7,2,6,i,1,-3
CN(Cc1cc(Cl)cc(Cl)c1)[C@H]1C[C@H]2c3[nH]c4ccccc4c3CCN2C(=O)[C@H]1CO,-17,nt,nt,-31,-13,nt,89,nt
O=C(O)c1ccc(-c2nnc(-c3ccccc3)o2)cc1,-19,0,31,-1,-8,i,-53,4
CCN(CC(=O)Nc1ccc(NC(C)=O)cc1)C(=O)CSCc1c(C)noc1C,-6,nt,nt,1,-1,i,8,nt
CCN1CCN(CCCNC(=O)CS(=O)(=O)Cc2nc(-c3ccccc3C)oc2C)CC1,1,-10,3,1,2,i,-11,-10
COc1ccc(OC)c(C(c2nnnn2C(C)(C)C)N2CCc3ccccc3C2)c1 (stereo unspecified),nt,-9,-3,-5,-12,i,3,23
CC(Nc1nc(-c2ccc(F)cc2)cs1)c1nc2cc(Cl)c(N3CCCCC3)cc2n1CCOCCO (stereo unspecified),-22,nt,36,10,-8,i,-18,nt
CCC(C)c1ccc(O)c(N)c1 (stereo unspecified),17,-7,-13,10,8,i,-18,2
COc1ccccc1CC(=O)NNS(=O)(=O)c1ccc([N+](=O)[O-])cc1,2,-4,-16,1,3,i,-28,3
CCc1nc2ccc(C(=O)N(C)CCN(C)C)cn2c1N(C)CCC(C)C,-3,nt,nt,-1,10,nt,-17,nt
CCc1nc2ccc(C(=O)NCc3ccc(OC)cc3)cn2c1N(C)C(=O)Cc1ccccc1,-6,nt,nt,0,0,nt,-8,nt
CS(=O)(=O)Cc1ccc(C(=O)N2CCN(C(=O)c3cccs3)CC2)cc1,25,nt,-10,3,1,nt,-6,nt
O=c1ccc(Cc2ccc(Cl)cc2)n[nH]1,-10,-5,-4,2,-1,i,nt,-3
CC(Oc1ccc(F)cc1)C(O)CCN(C)C (stereo unspecified),0,4,7,-1,4,i,nt,0
Cc1c(N2C(=O)CSC23C(=O)Nc2ccccc23)c(=O)n(-c2ccccc2)n1C (stereo unspecified),nt,-1,-11,-1,2,i,-6,-4
CCOc1ccc(Cc2n[nH]c(=S)n2Cc2ccccc2)cc1,2,-6,-11,-3,-6,i,nt,-22
Cc1cc([N+](=O)[O-])nn1CC(=O)N(C)Cc1ccccc1,5,7,-1,0,0,i,-10,11
C/C(=C\C(=O)N1CCc2ccccc21)C(=O)O,-93,-9,-14,-2,4,i,12,4
Cc1noc(C)c1C(=O)Nc1nc2ccc(S(C)(=O)=O)cc2s1,-30,5,13,-2,3,i,-20,-2
O=C(NC(=S)Nc1cccnc1)c1ccccc1,-29,15,-8,2,3,nt,-17,-7
Cc1ccc(NS(=O)(=O)c2cc(C(=O)OCC(=O)NCC3CCCO3)ccc2C)cc1 (stereo unspecified),8,-9,-14,4,-2,i,5,4
Fc1ccc(N2CN(Cc3cccnc3)CNC2=S)cc1,4,0,-9,-1,-1,i,-15,-1
CC(C)(C)OC(=O)NNC(=O)c1cccs1,5,-1,-4,2,-1,i,nt,6
Cc1cccc(Nc2nc(-c3ccc(F)cc3)cs2)n1,-325,9,23,-2,-10,nt,-23,-13
CC(=O)N1CCCc2cc(S(=O)(=O)CCC(=O)N3CCN(c4ccccc4)CC3)ccc21,-7,-6,-15,-3,-1,i,-15,-2
CCOC(=O)C1(O)CC(C)=NN1C(=O)c1cccc(Cl)c1 (stereo unspecified),-24,3,-9,-2,2,i,-18,14
CCOC(=O)N1CCN(c2nc(C)cc(C(F)(F)F)n2)CC1,-25,-6,3,2,3,i,16,-10
O=C(Oc1ccc2ccc(OC(=O)N3CCOCC3)cc2c1)N1CCOCC1,nt,5,-10,2,-4,i,-3,-14
COc1ccc(CNC(=O)C/C(C)=N/NC(=O)COc2ccc(C)cc2Br)cc1,-64,-17,51,-2,-10,i,nt,?
COCCNC(=O)c1nc2ccccc2s1,-11,-3,3,3,6,i,nt,4
CCCS(=O)(=O)N1CCC(Cc2ccc(OC)cc2)(C(=O)OCC)CC1,2,7,-4,1,1,i,nt,1
O=C(NC1CC1)C1=C[C@@H](c2ccc(C(F)(F)F)cc2)C[C@@H](OCc2ccc(CO)cc2)O1,22,nt,-27,1,0,i,10,nt
CCN(Cc1cc2ccccc2[nH]c1=O)S(=O)(=O)c1ccc(OC)cc1,4,-4,-3,-1,-11,i,0,7
CCOC(=O)c1c(-c2ccc(OC)cc2)nc2nonc2c1N,-81,5,-5,-2,0,i,-2,-4
Cn1ccnc1SCC(=O)Nc1cc(C(F)(F)F)ccc1N1CCOCC1,nt,6,-18,-3,-1,i,nt,1
Cc1ccc(S(=O)(=O)NC(=O)N2CCN(Cc3c(F)cccc3Cl)CC2)cc1,-3,2,-11,0,6,i,nt,1
O=C(Oc1ccc2c(=O)c(Oc3ccc4ccccc4c3)coc2c1)c1cccnc1,7,-2,18,2,4,i,-18,6
CC1CCN(C(=O)CCNS(=O)(=O)c2ccc3c(c2)c(=O)n(C)c(=O)n3C)CC1,7,2,-12,3,4,i,-12,10
CC(Sc1nnc(-c2ccccc2F)n1C1CC1)C(=O)NC(N)=O (stereo unspecified),3,0,nt,-4,-2,i,-11,2
CN1C(=O)N(C)C2CC1N(C)C(=O)N2C,-72,-1,-3,2,5,i,-1,7
Cc1ccc(NC(=O)[C@@H]2CCC(=O)N2C2OC(=O)c3ccccc32)cc1Cl (stereo partly specified),nt,2,-6,3,4,i,-11,22
O=C1Nc2ccc(Cl)cc2/C1=C/C1CC=CCC1 (stereo unspecified),-1,2,33,3,1,i,-1,4
Cc1ccc(OCCn2c(C)c(/C=N/n3cnnc3)c3ccccc32)cc1,-110,1,17,1,-4,i,-18,2
Cc1ccc(Cc2c(-c3ccc(Br)cc3)nc3ccc(Br)cn23)cc1,-23,nt,nt,-23,-16,nt,-13,nt
CCNC(=O)N1CCC(n2nccc2NC(=O)CCOc2ccccc2)CC1,-4,-16,-8,2,4,i,-9,3
COC(=O)/C(=C\c1ccc(O)cc1)c1nc2ccccc2[nH]1,-8,-2,-14,-5,1,i,nt,1
CCC(=O)N1CCN(c2nc(CC)nc3sc4c(c23)CCCC4)CC1,0,-8,-6,-3,-2,i,4,4
O=C(NCCc1ccccc1)C1CCCN1S(=O)(=O)c1ccc(F)cc1 (stereo unspecified),-7,nt,-5,8,5,i,-15,nt
C=CCN1C(=O)C2(OCCCO2)c2cccc(Cl)c21,-1,0,-14,-1,3,i,-26,10
COc1ccccc1CN1CC(C(=O)N2CCOCC2)CCC1=O (stereo unspecified),-14,4,-17,-3,3,i,-4,2
NS(=O)(=O)c1cccc(NC(=O)CSc2nnc(C3CC3)n2C2CC2)c1,-7,nt,nt,6,3,nt,-11,nt
CCC(C)n1c(SCC(=O)/C(C#N)=C(\C)N)nc2ccccc2c1=O (stereo unspecified),12,-4,2,-2,-8,i,-1,-2
COc1ccc(-c2cc(C(F)F)n3ncc(C(=O)Nc4cccc(S(=O)(=O)N5CCOCC5)c4)c3n2)cc1,3,-10,-7,13,4,i,nt,-2

# Next structures follow.
Compound,Env fusion inh,eIF4H FP inh,CSC inhib,MT1-MMP act inh,MT1-MMP act inh RFP,Rce1 inhib,Yeast UUG start,PABP FP inh
COc1ccc(C(=O)/C(C#N)=N/Nc2cccc([N+](=O)[O-])c2)cc1,-41,-8,nt,-5,-36,i,-11,3
C=CCn1c(N)cc(=O)nc1SCC(=O)Nc1ccc(C(=O)OC)cc1,-11,-10,-6,3,3,i,-3,2
COc1ccc(-n2c3c(cc(C(=O)NNc4ccccc4C)c2=O)C(=O)CC(C)(C)C3)cc1,-83,-1,-12,0,2,i,6,-4
O=C(Cc1ccc(F)cc1)N1CCC(CC2CC(c3cccc(Br)c3)=NO2)(C(=O)NCC2CCCCC2)CC1 (stereo unspecified),24,-11,-27,-16,-13,i,-14,2
CC(C)(C)c1ccc(-c2noc(-c3ccc4c(c3)CCO4)n2)cc1,-18,-1,38,9,-22,i,-9,-6
C[C@@H]1CN([C@@H](C)CO)C(=O)c2cc(Br)cnc2O[C@H]1CN(C)C(=O)NC1CCCC1,-14,nt,nt,1,1,nt,5&42,nt
O=C(NNC(=O)c1cccc(Br)c1)C(=O)N1CCCCC1,-10,42,-7,-1,5,i,nt,-1
Cc1ccc(NS(=O)(=O)c2ccc(C(=O)N3CCN(S(=O)(=O)c4ccccc4)CC3)cc2)cc1,25,nt,-1,2,-11,i,-3,nt
OC(c1ccc(F)c(F)c1)c1ncc(-c2cccc(F)c2)[nH]1 (stereo unspecified),8,nt,nt,1,-4,nt,-15,nt
COc1cc(CNC(=O)c2ccccc2NC(=O)C2=C(C)OCCS2)cc(OC)c1OC,3,-9,-5,1,-3,i,-9,0
CCOc1ccc(CCNC(=O)C(CC)n2nc(C)n3c(cc4sccc43)c2=O)cc1OCC (stereo unspecified),nt,3,-11,-1,0,i,-3,8
S=c1[nH]nc(-c2ccc(Br)cc2)n1Cc1ccccc1,-7,-9,5,0,8,nt,nt,-2
COCCNC(=O)c1ccc2c3n(nc2c1)-c1ccccc1CO3,-82,-4,-2,5,2,i,-19,-5
CN(C)/N=C/c1cn(-c2ccccc2)nc1-c1cccnc1,7,-1,-9,-2,-4,i,nt,-10
Cn1cc(C(=O)N/N=C/C2=C(N3CCOCC3)C(=C/c3ccc([N+](=O)[O-])cc3)/CC2)ccc1=O,3,nt,-15,-8,-4,i,-8,nt
CC(C(=O)O)N(c1ccccc1Cl)S(C)(=O)=O (stereo unspecified),1,nt,-12,-2,3,nt,-19,nt
O=C(COc1coc(CN2CCc3ccccc32)cc1=O)N1CCCCC1,-3,nt,18,2,4,i,nt,nt
COc1ccc(-c2ccc(SCC(=O)c3cccs3)nn2)cc1,-19,-6,24,2,6,i,nt,3
CC(NC(=O)C1CCN(C(=O)[C@@H]2Cc3ccccc3CN2C(=O)OC(C)(C)C)CC1)c1ccccc1 (stereo partly specified),-17,0,-1,3,2,i,0,4
COc1ccc(/C=N/N(CCC(=O)NC(C)(C)C)C2=NS(=O)(=O)c3ccccc32)cc1,-4,6,-11,2,-3,i,-4,24

# High-throughput results from PubChem BioAssay.
